High-throughput results from PubChem BioAssay.
T cruzi inh: T. cruzi replication inhibition; inhibition, % (test concentration not listed); AID 1885; hit rate 1.4% among 300,000; T. cruzi beta-gal in NIH3T3, luminescence, 90 h;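 active = mean inhibition across valid replicates above about 55%, limit read from the data; inconclusive = mean below that limit but half or more replicates reach it; inactive = mean below it, under half of replicates reach it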;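 also: signal also drops with host cell toxicity which is not excluded here; 0% = plate median of DMSO wells and 100% = zero luminescence signal; higher percent means less beta-gal luminescence so fewer parasites; stock transfer was 50 nL into about 50 µL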
Beta cell apopt: blocks beta cell apoptosis. INS-1E cytokine-induced death, ATP luminescence, 48 h; percent of positive-control rescue, neutral wells zero. protection from apoptosis, % (concentration not given with the values). hit rate 0.8% among 300,000;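 active = all replicates at 75% or more, or half of them and the mean; inconclusive = half reach 75% but not the mean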;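 also: 0% = cytokine-treated negative control wells and 100% = positive control rescue; higher means more ATP so stronger rescue from cytokine killing; wells of about 40 µL received 100 nL stock; the first replicate is given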
ALR H2O2 inh: inhibitors of human sulfhydryl oxidase ALR; inhibition, % (test concentration not listed); P55789; purified ALR, DTT oxidation, H2O2 HRP-luminol luminescence; hit rate 3.8% among 290,000;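 active = mean and each replicate at 75% or more; inconclusive = only one of the two met; inactive = neither met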;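 also: stock transfer was 7.5 nL into about 7.5 µL; 0% = neutral wells and 100% = wells with inactivated enzyme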
Target sequence (P55789 whole entry, looked up): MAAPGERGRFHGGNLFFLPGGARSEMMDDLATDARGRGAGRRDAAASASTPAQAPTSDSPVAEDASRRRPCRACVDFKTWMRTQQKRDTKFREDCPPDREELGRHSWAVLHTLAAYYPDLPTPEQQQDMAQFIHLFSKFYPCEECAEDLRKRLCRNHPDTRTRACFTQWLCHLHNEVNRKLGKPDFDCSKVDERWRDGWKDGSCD
Ecoli rRNA inh: inhibits bacterial ribosomal RNA function over humanized ribosomes | E. coli WT GFP vs humanized-ribosome RFP mutants, fluorescence, 24 h; stronger effect = lower value; DMSO median 0, no signal -100 | GFP signal change (wild-type ribosome), % (concentration not given with the values) | hit rate 1.6% among 350,000 | AID 720706;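 active = significant combined selectivity score with lowered wild-type GFP, culture density cut under 30%, mutant RFP and density less affected; inactive = any of these conditions unmet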; also: one replicate is shown; some compounds called inactive have numbers as strong as hits
Calb FLC: C. albicans growth modulation with fluconazole | C. albicans CaCi-2 (fluconazole-resistant clinical isolate) + fluconazole, Alamar Blue growth, 48 h | growth inhibition, % (concentration not given with the values) | hit rate 0.57% among 300,000 | AID 1979;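 active = most replicates above 75%; inconclusive = exactly half above 75%; inactive = most below 75%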;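 also: all wells also contain fluconazole at 8 µg/ml as a sub-toxic cotreatment; 0% = median of DMSO wells and 100% = median of geldanamycin control wells; wells of about 8 µL received 7.5 nL stock; the first replicate is given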
Bfl-1 A1 inh: inhibitors of the anti-apoptotic protein A1, read as caspase activation; MEF A1-2A-BIM cells, Caspase-Glo 3/7 luminescence, 3 h; percent of clofoctol response, vehicle zero; caspase activation, % (concentration not given with the values); hit rate 0.066% among 330,000; AID 2462;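 active = over half of replicate activation scores above 10%, or exactly half above 10 with the replicate mean above 10; inconclusive = replicate mean below 10 yet half the replicates above 10; inactive = over half of replicates below 10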;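 also: wells of about 30 µL received 50 nL stock; many hits fall short of the cut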
LANA-H2A inh: blocks KSHV LANA binding to histone H2A/H2B. cell-free LANA-H2A/H2B peptide, fluorescence polarization. hit rate 0.6% among 320,000. inhibition, % (test concentration not listed). Q9QR71; in the data active = inhibition mostly above about 10%, no sharp cut-off; inactive = mostly below about 6.7%;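 also: stock transfer was 7.5 nL into about 10 µL; 0% = median of vehicle wells and 100% = median of positive control wells; one replicate is shown; the record names a cut of 25% in any replicate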
Beta2AR agonist: human beta-2 adrenergic receptor agonism by FAP | P07550 | Am2.2-beta2AR cells, FAP receptor internalization, flow cytometry; reference of the scale not given here | response, % (concentration not given with the values) | hit rate 0.43% among 340,000 | AID 504454;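 active = response above a set limit, near 3 SD of response in nonfluorescent compounds, cut at about 42% in these data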;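 also: stock transfer was 100 nL into about 11 µL; a reference agonist was the positive control; negative values mostly stem from fluorescent compounds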
Target sequence (P07550 whole entry, looked up): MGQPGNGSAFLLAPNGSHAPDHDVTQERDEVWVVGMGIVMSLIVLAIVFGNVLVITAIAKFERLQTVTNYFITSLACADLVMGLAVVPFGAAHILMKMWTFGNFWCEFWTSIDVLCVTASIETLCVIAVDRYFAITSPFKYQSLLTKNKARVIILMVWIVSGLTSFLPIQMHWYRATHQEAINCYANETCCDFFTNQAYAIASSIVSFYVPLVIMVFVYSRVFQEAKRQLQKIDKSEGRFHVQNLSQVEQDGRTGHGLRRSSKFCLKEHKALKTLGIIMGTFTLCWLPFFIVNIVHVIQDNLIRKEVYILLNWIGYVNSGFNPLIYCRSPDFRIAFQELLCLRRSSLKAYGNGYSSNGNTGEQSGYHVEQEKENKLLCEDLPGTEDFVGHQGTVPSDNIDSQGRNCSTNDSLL
Ecoli rRNA inh OD600: recorded beside Ecoli rRNA inh, whose call it bears; OD600 change, %; measured here: OD600 growth;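 optical density of the mix in the first replicate; 0 = DMSO median and -100 = no signal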
Ecoli rRNA inh RFP: recorded beside Ecoli rRNA inh, whose call it bears; RFP signal change, %; measured here: RFP humanized mutant strains;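 first replicate; 0 = DMSO median and -100 = no signal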
Starred values were filed as active, the others as inactive. Some of the compounds tested, so the mix of outcomes need not match the whole.

`COc1ccccc1-c1noc(CCC(=O)Nc2ccccc2Cl)n1` gave T cruzi inh 4, Beta cell apopt 1, ALR H2O2 inh -3, Ecoli rRNA inh -5, Calb FLC inconclusive, Bfl-1 A1 inh 0.3, LANA-H2A inh -5.1, Beta2AR agonist -2, Ecoli rRNA inh OD600 -9 and Ecoli rRNA inh RFP -1.0.
For O=C(Nc1nc2cc3c(cc2s1)OCO3)C1CC1 the results were T cruzi inh 56*, Beta cell apopt 19, Ecoli rRNA inh -4, Calb FLC 6, Bfl-1 A1 inh -1.8, LANA-H2A inh 0.3, Beta2AR agonist -14, Ecoli rRNA inh OD600 -13 and Ecoli rRNA inh RFP -3.4.
Screening O=C(CC1SCCNC1=O)Nc1cc(Cl)cc(Cl)c1 (configuration not stated) returned T cruzi inh 10, Beta cell apopt -4, ALR H2O2 inh -12, Calb FLC 0, Bfl-1 A1 inh 0.7, LANA-H2A inh -0.1 and Beta2AR agonist 2.
`O=C(CSc1ccc(-c2cccnc2)nn1)N1CCCCCC1` gave T cruzi inh -7, Beta cell apopt 2, ALR H2O2 inh 0, Ecoli rRNA inh 1, Calb FLC 13, Bfl-1 A1 inh 0.6, LANA-H2A inh -3.6, Beta2AR agonist -5, Ecoli rRNA inh OD600 8 and Ecoli rRNA inh RFP 0.9.
Screening COc1ccccc1NC(=O)CSc1nnc(Cn2cnc3ccccc32)o1 returned T cruzi inh -4, Beta cell apopt -7, ALR H2O2 inh -11, Ecoli rRNA inh -2, Calb FLC -20, Bfl-1 A1 inh 0.9, LANA-H2A inh 4.3, Beta2AR agonist 4, Ecoli rRNA inh OD600 3 and Ecoli rRNA inh RFP -0.7.
For CCOC(=O)N1CCN(C(=O)c2ccc3ccccc3c2)CC1 the results were T cruzi inh -15, ALR H2O2 inh -5, Ecoli rRNA inh 3, Calb FLC 19, Bfl-1 A1 inh 0.6, LANA-H2A inh 3.0, Beta2AR agonist -11, Ecoli rRNA inh OD600 -4 and Ecoli rRNA inh RFP -2.5.
Screening O=C(Nc1ccc(Cl)cn1)c1ccc(-c2ccc(Cl)c(Cl)c2)o1 returned T cruzi inh -6, Beta cell apopt 0, ALR H2O2 inh 1, Calb FLC 1, Bfl-1 A1 inh -0.4, LANA-H2A inh 7.3 and Beta2AR agonist -4.
O=C(NNC(=O)c1cc(Br)ccc1Cl)c1csc(N2CCOCC2)n1 was read as T cruzi inh 3, Beta cell apopt -1, ALR H2O2 inh -2, Ecoli rRNA inh 3, Calb FLC 9, Bfl-1 A1 inh -0.7, LANA-H2A inh -2.9, Beta2AR agonist -6, Ecoli rRNA inh OD600 -4 and Ecoli rRNA inh RFP 8.1.
`Cc1cccc(OCC(=O)OCC(=O)N2CCCc3ccccc32)c1C` gave Beta cell apopt 0, ALR H2O2 inh -8, Bfl-1 A1 inh 0.8, LANA-H2A inh 1.3 and Beta2AR agonist -4.
COc1cc(/C=N/NC(=O)CN2CCCCC2)ccc1OCc1ccc(Br)cc1 was read as T cruzi inh -11, Beta cell apopt -1, Calb FLC -8, Bfl-1 A1 inh -0.7, LANA-H2A inh 1.7 and Beta2AR agonist 7.
For CCCn1c(NC(=O)c2ccc(F)cc2)nc2ccccc21 the results were T cruzi inh 84*, Beta cell apopt 30, ALR H2O2 inh -1, Ecoli rRNA inh 5, Calb FLC -4, Bfl-1 A1 inh 0.7, LANA-H2A inh -1.8, Beta2AR agonist 3, Ecoli rRNA inh OD600 -8 and Ecoli rRNA inh RFP -3.7.
O=C(Cc1nc(=O)c2ccccc2s1)Nc1ccccc1 was read as T cruzi inh 7, Beta cell apopt 12, ALR H2O2 inh 0, Calb FLC -2, Bfl-1 A1 inh -7.9, LANA-H2A inh -2.8 and Beta2AR agonist 10.
Screening CC1=C(C(=O)Nc2cc(C)ccn2)C(c2cnn(C)c2)C2=C(CC(c3ccccc3)CC2=O)N1 (configuration not stated) returned T cruzi inh -19, Beta cell apopt -1, ALR H2O2 inh -3, Ecoli rRNA inh -40, Calb FLC 7, Bfl-1 A1 inh -1.1, LANA-H2A inh 6.2, Beta2AR agonist -7, Ecoli rRNA inh OD600 -62 and Ecoli rRNA inh RFP -12.
Screening Cc1onc(-c2c(F)cccc2Cl)c1C(=O)Nc1cccc(S(=O)(=O)NC2=NCCC2)c1 returned T cruzi inh 3, Beta cell apopt 11, ALR H2O2 inh 2, Ecoli rRNA inh -6, Calb FLC -10, Bfl-1 A1 inh -0.6, LANA-H2A inh -2.6, Beta2AR agonist 6, Ecoli rRNA inh OD600 -6 and Ecoli rRNA inh RFP -2.0.
Screening COCCn1c(SCC(=O)NC2CCCCC2C)nc2ccccc2c1=O (configuration not stated) returned T cruzi inh 7, Beta cell apopt 1, ALR H2O2 inh -2, Ecoli rRNA inh 0, Calb FLC -3, Bfl-1 A1 inh 0.0, LANA-H2A inh -3.6, Beta2AR agonist 0, Ecoli rRNA inh OD600 3 and Ecoli rRNA inh RFP -1.9.
CSc1nsc(/C=C/Nc2ccc(C)c(C)c2)c1C#N was read as T cruzi inh 23, Beta cell apopt 4, ALR H2O2 inh -1, Ecoli rRNA inh -7, Calb FLC 9, Bfl-1 A1 inh 0.1, LANA-H2A inh 1.4, Beta2AR agonist -3, Ecoli rRNA inh OD600 -14 and Ecoli rRNA inh RFP -0.6.
Screening CCOC(=O)c1[nH]cnc1C(=O)NC1CCCCC1 returned T cruzi inh -1, Beta cell apopt -1, Calb FLC 16, Bfl-1 A1 inh 0.7, LANA-H2A inh -6.5 and Beta2AR agonist -1.
COc1cc(/C=N/NC(=O)c2nnn(-c3nonc3N)c2-c2cccs2)ccc1O was read as T cruzi inh -8, Beta cell apopt -2, ALR H2O2 inh 89*, Ecoli rRNA inh 7, Calb FLC -5, Bfl-1 A1 inh 1.2, LANA-H2A inh 1.5, Beta2AR agonist 14, Ecoli rRNA inh OD600 -3 and Ecoli rRNA inh RFP 4.5.
Cc1cn(S(=O)(=O)c2ccc(Br)c3ccccc23)cn1 was read as Beta cell apopt -8, ALR H2O2 inh -14, Bfl-1 A1 inh 0.2 and LANA-H2A inh -3.5.
Screening C#CCOCCOCCOCCNc1nc(N2CCN(C(=O)Cn3cc(CCCCN)nn3)CC2)nc(N2CCN(C(=O)Cn3cc(CC(C)O)nn3)CC2)n1 (configuration not stated) returned T cruzi inh -5, Beta cell apopt -15, ALR H2O2 inh -5, Ecoli rRNA inh -12, Calb FLC -3, Bfl-1 A1 inh 1.6, LANA-H2A inh -5.0, Beta2AR agonist 5, Ecoli rRNA inh OD600 -23 and Ecoli rRNA inh RFP 4.7.
`Cn1c(=O)c2c(nc(NNC(=O)C(F)(F)F)n2C)n(C)c1=O` gave T cruzi inh 17, Beta cell apopt -1, ALR H2O2 inh 9, Ecoli rRNA inh 2, Calb FLC 1, Bfl-1 A1 inh 0.7, LANA-H2A inh 0.4, Beta2AR agonist -1, Ecoli rRNA inh OD600 8 and Ecoli rRNA inh RFP -9.0.
Screening Cc1csc(NC(=O)CCC(=O)N(CC(=O)NC2CCCCC2)c2ccccc2)n1 returned T cruzi inh 10, Beta cell apopt -9, Ecoli rRNA inh 2, Calb FLC 0, Bfl-1 A1 inh 0.2, LANA-H2A inh -2.3, Beta2AR agonist 8, Ecoli rRNA inh OD600 12 and Ecoli rRNA inh RFP -1.1.
CNC[C@@H]1Oc2ccc(NC(=O)Nc3c(C)noc3C)cc2CC(=O)N([C@H](C)CO)C[C@H]1C was read as Beta cell apopt -4, ALR H2O2 inh 1, Ecoli rRNA inh 3, Bfl-1 A1 inh -0.5, LANA-H2A inh 6.7, Beta2AR agonist 1, Ecoli rRNA inh OD600 13 and Ecoli rRNA inh RFP -0.4.
O=C1C2C3CCC(C3)C2C(=O)N1Cc1ccco1 (configuration not stated) was read as T cruzi inh 8, Beta cell apopt -1, ALR H2O2 inh -1, Calb FLC 3, Bfl-1 A1 inh 0.4, LANA-H2A inh 2.8 and Beta2AR agonist 2.
`COCCCN=Cc1c(C)[nH]n(-c2ccc(Br)c(C)c2)c1=O` gave T cruzi inh 10, ALR H2O2 inh 4, Calb FLC 46, Bfl-1 A1 inh -2.5, LANA-H2A inh 1.8 and Beta2AR agonist -1.
`O=C(CP(=O)(c1ccccc1)c1ccccc1)Nc1cccc(CP(=O)(c2ccccc2)c2ccccc2)c1` gave T cruzi inh -8, Beta cell apopt 6, ALR H2O2 inh -4, Ecoli rRNA inh -8, Calb FLC -5, Bfl-1 A1 inh -0.2, LANA-H2A inh -1.6, Beta2AR agonist 6, Ecoli rRNA inh OD600 -12 and Ecoli rRNA inh RFP -0.5.
Screening CCOC(=O)C1CCN(C(=O)CSc2nc3ncccc3[nH]2)CC1 returned T cruzi inh -9, Beta cell apopt -5, ALR H2O2 inh -16, Ecoli rRNA inh 4, Calb FLC 0, Bfl-1 A1 inh 0.2, LANA-H2A inh 5.2, Beta2AR agonist -2, Ecoli rRNA inh OD600 14 and Ecoli rRNA inh RFP -2.9.
`CCOC(=O)c1ccccc1NC(=O)CN1C(=O)NC(C)(CCc2ccccc2)C1=O` (configuration not stated) gave T cruzi inh 4, Beta cell apopt 3, ALR H2O2 inh 9, Ecoli rRNA inh -17, Calb FLC -3, Bfl-1 A1 inh 0.3, LANA-H2A inh 5.9, Beta2AR agonist 0, Ecoli rRNA inh OD600 -26 and Ecoli rRNA inh RFP 3.9.
Screening CSCC[C@H](NC(=O)c1ccc(Cl)c([N+](=O)[O-])c1)c1nc2ccccc2[nH]1 returned T cruzi inh 8, Beta cell apopt -1, ALR H2O2 inh 4, Calb FLC -12, Bfl-1 A1 inh -0.4, LANA-H2A inh 5.6 and Beta2AR agonist 9.
For CC(=O)N1CCC(=NNc2ccnc3cc(Cl)ccc23)CC1 the results were T cruzi inh 1, Beta cell apopt -7, ALR H2O2 inh 26, Ecoli rRNA inh 4, Calb FLC 13, Bfl-1 A1 inh 1.0, LANA-H2A inh 4.4, Beta2AR agonist -4, Ecoli rRNA inh OD600 -5 and Ecoli rRNA inh RFP 19.
N#C/C(=C\c1ccc(C#N)cc1)C(=O)N1CCCC1 was read as T cruzi inh -20, Beta cell apopt -3, ALR H2O2 inh 22, Calb FLC 4, Bfl-1 A1 inh 0.7, LANA-H2A inh -2.1 and Beta2AR agonist 2.
COc1ccc(N2CCN(C(=O)CCNS(=O)(=O)c3ccc(C)cc3)CC2)cc1 was read as T cruzi inh 0, Beta cell apopt -2, ALR H2O2 inh 99*, Ecoli rRNA inh -18, Calb FLC 1, Bfl-1 A1 inh 1.1, LANA-H2A inh 1.6, Beta2AR agonist 2, Ecoli rRNA inh OD600 -17 and Ecoli rRNA inh RFP 1.5.
For O=C(N/N=C/c1c(O)ccc2ccccc12)c1cccc(C(F)(F)F)c1 the results were T cruzi inh 57*, ALR H2O2 inh -11, Calb FLC 90*, Bfl-1 A1 inh 0.6, LANA-H2A inh 0.0 and Beta2AR agonist -14.
COc1ccccc1/C=N/NC(=O)c1nnn(-c2nonc2N)c1-c1ccccc1 was read as T cruzi inh -5, Beta cell apopt -3, ALR H2O2 inh -8, Ecoli rRNA inh 18, Calb FLC 0, Bfl-1 A1 inh 0.6, LANA-H2A inh 0.1, Beta2AR agonist -1, Ecoli rRNA inh OD600 15 and Ecoli rRNA inh RFP 0.6.
